Screens deposited in PubChem BioAssay by several laboratories.
Mtb hypoxia rep: Mtb hypoxia fluorescent reporter inhibition; M. tuberculosis hypoxia-regulated fluorescent reporter, fluorescence; fluorescence inhibition, % (test concentration not listed); 0.1% of 300,000 active;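 active = 35 to 45% if threefold the growth effect, above 45% if 1.5-fold the growth effect; inactive = the rest, general growth blockers included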;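 note: wells of about 50 µL received 100 nL stock; 0% = vehicle wells and 100% = reference inhibitor wells; whole bacteria with a GFP reporter of the hypoxia response; strong numbers were not always called active; many hits fall short of the cut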
Sa RN4220 lethal: S. aureus RN4220 growth inhibition. OD600, 16 h. inhibition, % (no concentration beside the values). AID 1259311. 0.33% of 330,000 active;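 active = z-score of -3 or lower and OD600 up to 0.18 on both plates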;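 note: plate controls were untreated cells for no effect and reference antibiotic for full effect; stock transfer was 100 nL into about 80 µL; one replicate is shown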
PrP 5UTR inh: suppresses PrP 5' UTR mRNA reporter expression; inhibition, % (no concentration beside the values); cell-based PrP 5' UTR mRNA reporter, plate reader; 0.35% of 340,000 active;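 active = every replicate at 50% or more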;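 note: 0 = median of the neutral control wells; tested in H4 reporter cells; numbers are from one replicate; inactives centre near -14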
BJeLR viability: kills HRASV12-expressing BJeLR cells. BJeLR (HRASV12) viability, CellTiter-Glo ATP luminescence, 48 h; reference of the scale not given here. inhibition, % (no concentration beside the values). 0.17% of 300,000 active. AID 1554;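 active = replicate mean above 50%; inconclusive = above 50% but judged a plate artefact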;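 note: 50 nL library stock added to about 25 µL; numbers are from one replicate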
Autofluor counter: flagged as autofluorescent in microsphere protease counterscreen; compound autofluorescence counterscreen, microsphere flow cytometry; hits give high values; fluorescence intensity (no concentration beside the values); 3.1% of 360,000 active;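 active = at least 3 SD above the mean of all compounds, about 16000 in these data; inconclusive = too few beads counted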;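 note: 100 nL of 1 mM stock went into each well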
ugtP null kill: compounds lethal to S. aureus RN4220 ugtP deletion mutant | OD600 growth, 16 h; some inactives read as strong as hits | growth inhibition, % (concentration not given with the values) | 0.54% of 330,000 active | AID 1259309;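 active = z-score under -3 and OD600 up to 0.15 on both plates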;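 note: plate controls were untreated wells for no effect and antibiotic for full effect; wells of about 80 µL received 100 nL stock; the first replicate is given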
Mtb hypoxia rep growth: second read-out of Mtb hypoxia rep, no call of its own (marks repeat the call); growth inhibition, %; measured here: M. tuberculosis growth (absorbance);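 0% = vehicle and 100% = reference antibiotic; read after six days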
Starred values were filed as active, the others as inactive; ? = inconclusive; · = no result given. Random draw from the library; 4% or so of the library scored in one or more.

SMILES | Mtb hypoxia rep | Mtb hypoxia rep growth | Sa RN4220 lethal | PrP 5UTR inh | BJeLR viability | Autofluor counter | ugtP null kill
COc1cccc(CNC(=O)COc2ccc(C(=O)c3ccccc3)cc2)c1 | 5 | -2 | 3.2 | -30 | 0 | 2942 | 3
O=C(O)C1CCN(c2ccccc2[N+](=O)[O-])CC1 | -3 | -1 | 0.4 | -9 | -2 | 4451 | 2
NN1C(=O)c2cccc3c(C(=O)O)ccc(c23)C1=O | 3 | -1 | 2.9 | -25 | -9 | 9760 | 0
Cc1ccc2c(C)c(C(=O)Nc3c(C)n(C)n(-c4ccccc4)c3=O)oc2c1 | 2 | 1 | -16 | 0 | 2 | 2982 | -9
CC(OC(=O)CCN=C1NS(=O)(=O)c2ccccc21)C(=O)Nc1ccc(S(N)(=O)=O)cc1 (stereo unspecified) | 3 | -10 | 0.9 | -5 | · | 4076 | -1
CCn1cc(C(=O)O)c(=O)c2cc(F)c(N3CCN(C(=S)NC(=O)c4ccc(Br)cc4)CC3)cc21 | · | · | · | -24 | 2 | 4754 | ·
CC(=O)N1CCc2cc(S(=O)(=O)NC(Cc3ccccc3)C(=O)Nc3cc(C)ccn3)ccc21 (stereo unspecified) | 9 | 14 | 5.0 | -26 | -3 | 8405 | 7
CCO/N=C/C1=C(O)C(C(=O)OC)C(C)(C)CC1=O (stereo unspecified) | · | · | · | -17 | 5 | 3204 | ·
Cc1ccc(CN2CCS(=O)(=O)CC2)o1 | 8 | 5 | 6.3 | -9 | -5 | 4352 | 4
COc1ccc(CCNC(=O)C(=O)NCC2CCNCC2)cc1OC | 0 | 14 | 2.2 | -16 | -3 | ? | -2
O=S(=O)(c1ccc(Br)cc1)N1CCN(Cc2ccco2)CC1 | 5 | -3 | -0.9 | 3 | 8 | 4975 | -1
CC(Oc1ccc2c(-c3ccccc3)cc(=O)oc2c1)C(=O)N1CCOCC1 (stereo unspecified) | 5 | 7 | 4.6 | -8 | · | 6286 | 2

Complete entries as entered above. Order of screens: Mtb hypoxia rep | Mtb hypoxia rep growth | Sa RN4220 lethal | PrP 5UTR inh | BJeLR viability | Autofluor counter | ugtP null kill
Shown for CC(=O)N1CCc2cc(S(=O)(=O)NC(Cc3ccccc3)C(=O)Nc3cc(C)ccn3)ccc21 (stereo unspecified) : 9 | 14 | 5.0 | -26 | -3 | 8405 | 7
Shown for Cc1ccc(CN2CCS(=O)(=O)CC2)o1 : 8 | 5 | 6.3 | -9 | -5 | 4352 | 4
Shown for O=S(=O)(c1ccc(Br)cc1)N1CCN(Cc2ccco2)CC1 : 5 | -3 | -0.9 | 3 | 8 | 4975 | -1

Additional results follow.
SMILES | Mtb hypoxia rep | Mtb hypoxia rep growth | Sa RN4220 lethal | PrP 5UTR inh | BJeLR viability | Autofluor counter | ugtP null kill
Cc1cccc(CN2CCN(Cc3nc4c(s3)CCCC4)CC2CCO)n1 (stereo unspecified) | -1 | 2 | -0.3 | -12 | -4 | 2642 | 16
CCC(=O)N1c2ccccc2-c2nnc(SC)nc2OC1c1ccc(OC)c(OC)c1 (stereo unspecified) | · | · | 3.7 | -28 | -4 | 5336 | 10
Nc1nc(NCCO)nc(NC2CCCCC2)c1[N+](=O)[O-] | 5 | 10 | 4.9 | 0 | -13 | 3732 | -1
O=C(O)Cc1sc(NCCc2ccccc2)nc1-c1ccc(F)cc1 | 4 | 7 | -3.0 | -22 | -9 | 3887 | 13
Oc1ccc(N=Nc2n[nH]c(-c3ccc(Cl)cc3)n2)cc1 | 5 | 12 | -4.8 | -25 | 3 | 9998 | -19
O=S(=O)(NCC(c1ccco1)N1CCCCC1)c1ccccc1C(F)(F)F (stereo unspecified) | 5 | -9 | 4.2 | · | · | 5124 | 0
Cc1ccc(-n2nc3ccc(NC(=O)C(C)C)cc3n2)cc1 | 2 | -2 | 2.9 | -70 | -3 | 2488 | -8
CCOC(=O)c1cn2nc(Oc3ccc(C)cc3)ccc2n1 | 3 | 2 | 4.1 | -36 | -3 | · | -5
O=C(O)c1ccc(/C=N/Nc2nnnn2-c2ccccc2)cc1 | · | · | · | 10 | 7 | 9639 | ·
O=C(Cn1cc(C(F)(F)F)cc(Cl)c1=O)NCC1COc2ccccc2O1 (stereo unspecified) | 4 | 9 | 2.0 | · | · | ? | 2
CCOC(=O)N1CCN(C(=O)c2ccc(N(C)S(C)(=O)=O)cc2)CC1 | · | · | -3.7 | -26 | 5 | 2343 | -5
C=COC(=O)CSc1nc(-c2cccs2)ccc1C#N | 6 | 9 | 0.0 | -109 | · | 10879 | -16
Cc1nn(Cc2ccccc2)c(Cl)c1C=NNC(=O)c1cccnc1 | 3 | 0 | 4.2 | · | · | · | 4
c1ccc2sc(Cc3nnc4n3CCCCC4)nc2c1 | 2 | 4 | 1.3 | -25 | -4 | 8747 | 6
COc1ccccc1NC(=O)C1C2C=CC(C2)C1C(=O)NCc1cccnc1 (stereo unspecified) | 19 | 1 | -0.1 | -3 | -7 | 4017 | 6
Cc1cnc(NC(=O)C2CCC(C(C)(C)C)CC2)s1 (stereo unspecified) | 9 | 4 | 1.7 | -24 | -9 | 5571 | -9
CCOC(=O)c1ccc(N2C=C(C(=O)OC)C(c3ccc(OC)c(O)c3)C(C(=O)OC)=C2)cc1 | 3 | 1 | 1.9 | 1 | -7 | 3694 | 14
CCc1nnc2n1N=C(c1ccc(-c3cc(Cl)ccc3Cl)o1)CS2 | -1 | 7 | 6.0 | -20 | 1 | 4202 | -18
Cc1[nH]c(-c2ccc(F)cc2)cc1C(=O)N1CCN(c2ccccc2F)CC1 | -3 | 2 | -5.4 | -1 | 6 | 3554 | -2
COC(=O)c1cc(NC(=S)Nc2cc(Cl)cc(Cl)c2)cc(C(=O)OC)c1 | -12 | 5 | 99* | -19 | -2 | 2713 | 99*
CC(C)(CO)NS(=O)(=O)c1ccc2c(c1)C(=O)c1cc(S(=O)(=O)NC(C)(C)CO)ccc1-2 | -11 | 2 | 6.6 | 1 | -7 | 4852 | 9
O=C(CCN1CCCCCC1)Nc1ccc2c(c1)OCCO2 | 9 | 2 | -0.5 | -17 | · | 4869 | 2
Cc1cc(C)n2nc(SCC(=O)NN=Cc3ccc(F)cc3)nc2n1 | 8 | -2 | 5.6 | · | · | · | 13
Cc1ccc(NC(=O)Cn2c(=O)cnc3ccccc32)cc1S(=O)(=O)N1CCOCC1 | 0 | 8 | 0.6 | 3 | · | 8811 | -1
COc1ccc(CC(=O)O/N=C(\N)c2ccc(OC)cc2)cc1 | 6 | 11 | 3.4 | -31 | 0 | 3811 | 13
COc1cc(CC(=O)Nc2sc3c(c2C(N)=O)CCCC3)cc(OC)c1OC | 8 | 4 | 2.1 | -9 | -3 | 3622 | -9
CCCNC(=O)N1C2CCC1C(C(=O)OC)=C(c1ccccc1)C2 (stereo unspecified) | 5 | 11 | 4.2 | · | · | · | 1
C=CCn1c(SCC(=O)NC(=O)c2cccc([N+](=O)[O-])c2)nnc1-c1ccccc1F | -3 | 14 | 0.5 | -23 | 4 | 1997 | -5
CN(Cc1cccs1)CC(O)COCc1ccco1 (stereo unspecified) | 7 | 2 | 0.5 | -13 | -11 | 4174 | 4
COC(=O)C1=C(c2ccc(F)cc2OCc2ccccc2)CC2CCC1N2C(=O)NCc1ccccc1C(F)(F)F (stereo unspecified) | 15 | 9 | -1.8 | · | · | · | 7
O=C(NCCCN1CCCC1=O)C(=O)Nc1cccc(F)c1 | 5 | 1 | 3.8 | -58 | 3 | ? | 7
Cc1cccc(NC(=O)C2CC(=O)n3ncnc3N2)c1 (stereo unspecified) | 13 | -4 | 4.3 | -3 | -2 | 3359 | 1
COc1ccccc1N(CC(=O)N/N=C/c1c(O)ccc2ccccc12)S(C)(=O)=O | · | · | · | 12 | 2 | 2309 | ·
COc1ccc(C(=O)N/C(=C\c2ccco2)C(=O)NCc2ccco2)cc1 | 8 | -10 | -0.7 | -15 | 6 | 5787 | 0
CCCNS(=O)(=O)c1ccc(OCC(=O)NCc2ccc3c(c2)OCO3)cc1 | 8 | 6 | 2.4 | -40 | 2 | 8177 | -10
Cc1ccc(S(=O)(=O)N(C)c2nc3ccccc3n3c(C(C)C)nnc23)cc1 | 12 | 6 | 1.6 | 0 | 8 | 6094 | 6
O=[N+]([O-])c1ccc(-c2csc(N3CCCCCC3)n2)cc1 | 14 | 2 | 1.8 | -28 | -3 | 3865 | 32
Fc1cccc(Cl)c1CSc1ncn[nH]1 | -3 | -5 | -3.3 | 6 | -4 | 5773 | -8
CCOc1ccc(C(=O)NCc2ccccn2)cc1 | 2 | 0 | -1.5 | -11 | 12 | 8159 | 4
CN(CC(=O)Nc1ccccc1C(=O)NC1CC1)Cc1cccs1 | 21 | 9 | 5.0 | -27 | · | 4052 | 5
O=C(COc1ccc(F)cc1)Nc1cc(S(=O)(=O)N2CCCCC2)ccc1N1CCCCC1 | 3 | -7 | 4.0 | 2 | 2 | 4219 | 1
CCc1nn2cc(C(=O)c3cc(Cl)ccc3O)cnc2c1-c1ccc(F)cc1 | -4 | -4 | 6.4 | -2 | 4 | 2614 | 10
CN(C)CCCNC(=O)c1ccc(Cl)c(S(=O)(=O)N(C)c2ccccc2)c1 | 14 | 1 | 1.7 | -28 | -4 | 9674 | 4
c1ccc(-n2c3ccccc3c3ccccc32)cc1 | 3 | 20 | -8.5 | · | 14 | 4738 | 43
CCCCNc1nc2ccccc2[nH]1 | · | · | 3.7 | -4 | -10 | 2328 | 7
CCC(C)(C(=O)Nc1c(C)cccc1C)N(C)C(=O)c1ccc2ccccc2n1 (stereo unspecified) | 1 | -2 | -0.2 | -7 | 6 | 4224 | 5
CCc1ccc(NC(=O)CN(C)S(=O)(=O)c2ccc3[nH]c(=O)oc3c2)cc1 | -1 | 3 | -1.8 | 2 | 3 | 5159 | 2
O=C(Nc1ccc(S(=O)(=O)N2CCCCC2)cc1)C1CCCN(C(=O)c2ccc(Cl)cc2)C1 (stereo unspecified) | 2 | 1 | 1.4 | 3 | 4 | 2542 | -7
COc1cccc(C(=O)NNC(C)=CC(=O)C(F)(F)C(F)(F)C(F)(F)F)c1 | 0 | 0 | 5.4 | · | · | · | 50
Cn1c(CN2CCCC2)nc2cc(NC(=O)C3CCCCC3)ccc21 | 9 | 2 | 6.0 | -6 | -3 | 17014* | 5
CC(=NNC(=S)NC1CCCCC1)c1cccc(Br)c1 | -6 | -9 | 4.3 | · | · | · | -9
O=C(CN1CCCCCCC1)N/N=C/c1ccc(F)cc1F | · | · | · | -36 | 10 | 2496 | ·
C=CCn1c(C)cc(C(=O)Cn2c(C(C)O)nc3ccccc32)c1C (stereo unspecified) | 10 | 11 | 2.1 | -5 | 2 | 3201 | 38
NC(N)=N/N=C/c1ccc2cccc(OCc3ccccc3)c2n1 | · | · | · | -4 | -1 | 6333 | ·
CCN(C(=O)CCS(=O)(=O)c1cccc2nsnc12)c1cccc(C)c1 | -10 | 2 | 4.7 | -28 | -15 | 5297 | 6
Cc1sc(NC(=O)CSc2nnc3scc(-c4ccccc4)n23)c(C#N)c1C | 4 | 7 | 10 | -36 | 1 | 10130 | -2

Quoted from the listing:
Mtb hypoxia rep, `CC(OC(=O)CCN=C1NS(=O)(=O)c2ccccc21)C(=O)Nc1ccc(S(N)(=O)=O)cc1` (stereo unspecified) is entered as 3
PrP 5UTR inh, `NC(N)=N/N=C/c1ccc2cccc(OCc3ccccc3)c2n1` is entered as -4
Autofluor counter, `O=C(O)C1CCN(c2ccccc2[N+](=O)[O-])CC1` is entered as 4451
Mtb hypoxia rep, `CCc1nn2cc(C(=O)c3cc(Cl)ccc3O)cnc2c1-c1ccc(F)cc1` is entered as -4
Mtb hypoxia rep growth, `CN(C)CCCNC(=O)c1ccc(Cl)c(S(=O)(=O)N(C)c2ccccc2)c1` is entered as 1
Sa RN4220 lethal, `O=C(Nc1ccc(S(=O)(=O)N2CCCCC2)cc1)C1CCCN(C(=O)c2ccc(Cl)cc2)C1` (stereo unspecified) is entered as 1.4
